Six1-Eya2 blk – Six1/Eya2 interaction inhibition | activity change, % (test concentration not listed) | 0.56% of 360,000 active | Q15475+O00167 | AlphaScreen GST-Six1/His-Eya2 binding, biochemical; stronger effect = lower value; control for the full effect not named in the record; in the data active = activity change below about -65%; inconclusive = about -30% to -65%; inactive = above about -30%; further: on the % scale 0 is the no-effect control and ±100 the full control effect; compound concentration not given in the record
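Homogeneous AlphaScreen proximity assay pairing GST-Six1 with His-tagged Eya2 (added as 5X mix: 250 nM and 500 nM) in 50 mM Tris pH 8.0, 300 mM NaCl, 1 mM TCEP. Glutathione donor and nickel acceptor beads; 1 h, 37 °C, dark.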
TRPML1 agonist – agonists of human TRPML1 channel; Q9GZU1; TRPML1-expressing cells, Ca2+ dye fluorescence, FDSS; host cell line not named in the record; reference of the full effect not given here; activation, % (no concentration beside the values); 0.12% of 410,000 active; AID 624414; in the data active = activation above about 50%; inconclusive = about 30% to 50%; inactive = below about 30%; further: 0% is about no effect; the text of the record puts the active cut at 80%
Target sequence (Q9GZU1 whole entry, looked up): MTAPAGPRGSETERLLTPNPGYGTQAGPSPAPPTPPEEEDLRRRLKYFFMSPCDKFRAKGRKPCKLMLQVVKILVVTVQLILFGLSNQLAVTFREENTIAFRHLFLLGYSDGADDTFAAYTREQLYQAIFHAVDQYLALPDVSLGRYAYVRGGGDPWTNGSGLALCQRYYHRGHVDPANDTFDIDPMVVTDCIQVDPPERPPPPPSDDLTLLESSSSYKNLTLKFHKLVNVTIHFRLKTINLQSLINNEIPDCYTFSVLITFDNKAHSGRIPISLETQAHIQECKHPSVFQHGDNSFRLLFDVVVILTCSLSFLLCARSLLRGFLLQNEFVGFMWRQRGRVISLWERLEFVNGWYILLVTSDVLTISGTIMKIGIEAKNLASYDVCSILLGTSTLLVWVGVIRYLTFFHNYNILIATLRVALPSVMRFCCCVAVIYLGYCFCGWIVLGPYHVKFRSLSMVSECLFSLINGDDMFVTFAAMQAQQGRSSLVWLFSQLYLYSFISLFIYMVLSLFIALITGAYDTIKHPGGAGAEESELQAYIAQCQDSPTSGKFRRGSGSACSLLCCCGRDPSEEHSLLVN
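In this qHTS format, compounds were pin-transferred onto Ca8-dye-loaded TRPML1-DL cells induced with Tet overnight, and intracellular Ca2+ fluorescence was recorded kinetically for 110 s after a 10 s baseline. A subsequent 4uM final 54-4 (EC80) addition followed by a second 110 s read served as the antagonist phase.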
PINK1 modulator – PINK1 expression modulation. PINK1 immunofluorescence, high-content cytometry, 24 h. Potency, µM (series often up to 76.6 µM), for inactives: top-dose activation (PINK1 increase), usual class: activators. 0.2% of 410,000 active. AID 624263; active = well fitted activation curve with a large enough effect; inconclusive = small, poorly fitted or top-dose-only effect; inactive = flat fitted curve, though single readings scatter; cell line not stated here;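 further: potency means the concentration at half of the fitted maximal effect; % of control where 0% means no effect; nearly all actives have a fitted effect of over 65% in size; a mitochondrial uncoupler was the plate control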
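Decision-based qHTS: stable cells, 24 h exposure to five compound concentrations, CCCP as control. Fixed cells stained for PINK1 plus nuclear, mitochondrial and cell markers, cytometer read.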
CtBP-E1A blk – inhibitors of CtBP/E1A interaction | AlphaScreen GST-E1A/His-CtBP binding, 1536-well; stronger effect = lower value; control for the full effect not named in the record | activity change, % (concentration not given with the values) | 0.49% of 340,000 active | AID 651724; in the data active means activity change below about -65%; inconclusive means about -30% to -65%; inactive means above about -30%; further: on the % scale 0 is the no-effect control and ±100 the full control effect
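Protein mix (5X: 125 nM each GST-E1A, His-CtBP) was incubated with pinned compound 2 h at 37 deg C in dark, in 50 mM Tris pH 8.0 buffer with 300 mM NaCl. Glutathione donor and nickel acceptor beads followed; AlphaScreen signal read after 1 h.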
D2 agonist – activates the human D2 dopamine receptor; P14416; DiscoveRx PathHunter D2 beta-arrestin, luminescence, 90 min; 100% = 57 uM dopamine signal; activation, % (concentration not given with the values); 0.084% of 360,000 active; in the data active = activation above about 40%; inconclusive = about 15% to 40%; inactive = below about 15%; further: compound concentration not given in the record; the text of the record calls up to 30% inactive
Target sequence (P14416 whole entry, looked up): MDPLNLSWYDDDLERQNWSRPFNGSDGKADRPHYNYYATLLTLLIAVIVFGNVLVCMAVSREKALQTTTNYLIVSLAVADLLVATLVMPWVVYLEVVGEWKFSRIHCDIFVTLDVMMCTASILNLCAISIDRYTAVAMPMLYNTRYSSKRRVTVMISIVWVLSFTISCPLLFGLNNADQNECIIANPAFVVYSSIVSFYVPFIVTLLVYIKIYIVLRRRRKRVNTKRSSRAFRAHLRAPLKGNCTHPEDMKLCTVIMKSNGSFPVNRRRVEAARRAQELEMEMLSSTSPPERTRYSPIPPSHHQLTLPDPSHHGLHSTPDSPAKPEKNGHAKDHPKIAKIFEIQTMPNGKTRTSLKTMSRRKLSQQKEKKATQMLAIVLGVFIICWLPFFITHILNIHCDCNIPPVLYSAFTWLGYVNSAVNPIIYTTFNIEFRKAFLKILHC
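Agonist mode: compounds alone added to overnight-plated D2 PathHunter cells for 90 min at 37 C, with 57 uM final dopamine (EC100) defining full response. Beta-arrestin recruitment detected by chemiluminescent reagent, read after 1 h at ambient temperature.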
TRPML1 inh – inhibitors of human TRPML1 channel | activity change, negative = inhibition, % (concentration not given with the values) | 0.02% of 390,000 active | TRPML1-inducible cells, Ca2+ dye fluorescence, FDSS; stronger effect = lower value; inhibition of EC80 agonist-evoked calcium signal | AID 624415; in the data active means activity change below about -50%; inconclusive means about -30% to -50%; inactive means above about -30%;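 further: stimulus is agonist 54-4 at its EC80 concentration; on the % scale 0 is the no-effect control and ±100 the full control effect; compound concentration not given in the record; the text of the record puts the active cut at -80%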
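Calcium fluorescence in TRPML1-DL cells induced overnight with Tet: a 110 s read after compound pin addition, then a 110 s antagonist read after challenge with 54-4 at 4 uM final (EC80).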
Active calls of the source: *; ? = inconclusive; . = no result given; & = joins results of further samples; [ ] = dose if it differs, or a comment. Compounds were not picked by outcome; about 1% have a hit in one of these screens.

nr	canonical_smiles	Six1-Eya2 blk	PINK1 modulator	D2 agonist	CtBP-E1A blk	TRPML1 agonist	TRPML1 inh
1	CCOC(=O)c1ccccc1NC(=O)C1CC(=O)N(c2ccccc2)C1 (configuration not stated)	-2	-0.3%	0.1	.	1.5	16
2	CCc1ccc2c(c1)C1(SC(NC(C)=O)=NN1C(C)=O)C(=O)N2CC (configuration not stated)	4	1.0%	-3.9	4	0.0	35
3	Cc1ccc(C(=O)NC2CCS(=O)(=O)C2)cc1S(=O)(=O)N1CCCCC1 (configuration not stated)	6	0.2%	0.2	0	0.2	-1
4	CCS(=O)(=O)c1nc(S(=O)(=O)c2ccc(Cl)cc2)c(N2CCC3(CC2)OCCO3)s1	1	-1.3%	-1.2	3	0.7	-23
5	Cc1ccc(NC(=O)CSc2n[nH]c(-c3cccnc3)n2)cc1Cl	0	-2.8%	2.9	0	-0.8	-24
6	Cc1sc2nc(SCC(=O)C(C)(C)C)n(Cc3ccco3)c(=O)c2c1C	-8	?	-4.9	-3	-0.5	3
7	COc1ccccc1C(=O)NCCC(=O)NCc1cccnc1	6	1.1%	-2.6	.	-0.2	6
8	COc1cc(OC)c(Nc2nc3ccc(C)cc3n3nnnc23)cc1Cl	.	1.7%	.	.	0.1	-9
9	NS(=O)(=O)c1ccc(NC(=O)COC(=O)CN2C(=O)C3CC=CCC3C2=O)cc1 (configuration not stated)	5	1.1%	0.2	13	-0.2	-2
10	Cc1ccc(C)c(NC(=O)c2ccc3nccnc3c2)c1	0	0.0%	-0.9	-16	0.4	22
11	COC(=O)c1ccc(NC(=O)CSc2nncn2-c2ccccn2)cc1	-7	-2.3%	0.2	-11	0.5	1
12	Cc1cc(C(=O)OCC(=O)NCc2ccccc2Cl)c(C)o1	-4	5.0%	3.6	1	-0.5	-10

One compound at a time, from the list above. Order of screens: Six1-Eya2 blk, PINK1 modulator, D2 agonist, CtBP-E1A blk, TRPML1 agonist, TRPML1 inh
Cc1ccc(NC(=O)CSc2n[nH]c(-c3cccnc3)n2)cc1Cl as listed: 0, -2.8%, 2.9, 0, -0.8, -24
Cc1ccc(C(=O)NC2CCS(=O)(=O)C2)cc1S(=O)(=O)N1CCCCC1 (configuration not stated) as listed: 6, 0.2%, 0.2, 0, 0.2, -1
Cc1cc(C(=O)OCC(=O)NCc2ccccc2Cl)c(C)o1 as listed: -4, 5.0%, 3.6, 1, -0.5, -10

Further compounds follow:
nr	canonical_smiles	Six1-Eya2 blk	PINK1 modulator	D2 agonist	CtBP-E1A blk	TRPML1 agonist	TRPML1 inh
13	O=C(Nc1c(C(=O)N2CCN(c3ccccc3)CC2)oc2ccccc12)c1ccccc1F	.	-1.1%	.	.	0.5	13
14	CC(Oc1ccc(Cl)cc1)C(=O)Nc1cccc(S(=O)(=O)N2CCCC2)c1 (configuration not stated)	18	0.9%	1.2	9	-1.0	-3
15	Cc1noc(C(=O)Nc2cc(Cl)ccc2O)c1Cl	3	23%	2.0	1	1.2	6
16	Fc1cccc(Cl)c1Cc1noc(/C=C/c2ccccc2)n1	50	9.4%[38.3 µM]	-1.8	59	0.1	-6
17	Cc1oc(C(C)(C)C)cc1C(=O)NCC(=O)NCC(=O)O	0	.	-2.7	11	0.0	5
18	CCn1nnnc1-c1ccc(OC)c(S(=O)(=O)Nc2ccc(C)c(C)c2)c1	11	1.0%	2.1	-4	1.0	8
19	CC(=O)Nc1ccc(NC(=O)C(C)O/N=C/c2cccc([N+](=O)[O-])c2)cc1 (configuration not stated)	-5	0.6%	-4.6	0	0.3	3
20	CC1CCN(S(=O)(=O)c2cccc(C(=O)N(C)C3CCS(=O)(=O)C3)c2)CC1 (configuration not stated)	-1	-0.2%	-3.0	-2	-0.6	-4
21	Cc1ccc(C(C)C)c(OCCNCCc2ccccc2)c1	1	-2.0%	-1.1	11	0.6	-18
22	CCCCCCCNC(=O)C1(CC2CC(c3cccc(Br)c3)=NO2)CCN(C(=O)C2(C)CC2)CC1 (configuration not stated)	-12	2.7%	-2.2	.	0.3	57
23	CC(C)C(c1nnnn1Cc1ccc(F)cc1)N1CCSCC1 (configuration not stated)	0	-0.2%[38.3 µM]	-0.5	6	-0.7	2
24	O=C(Nc1ccc(Cl)cc1)N1CCc2[nH]c3ccccc3c2C1	-18	-0.9%	-0.9	-26	-0.7	0
25	COc1ccc(C)cc1NC(=O)NC(C)c1c(-n2cccc2)sc(C)c1C (configuration not stated)	.	1.5%	.	.	2.7	3
26	CCOC(=O)c1c(-c2ccc(C)cc2)csc1NC1=NS(=O)(=O)c2ccccc21	0	5.0%	-1.0	18	-0.7	28
27	COc1ccccc1NC(=O)Cn1cnc2sc(C)c(S(=O)(=O)N3CCCCC3)c2c1=O	-1	-0.8%	-4.4	-2	0.4	18
28	CCOC(=O)C1(C)CCN1C(=O)c1ccccc1C(F)(F)F (configuration not stated)	1	-0.6%	-4.3	2	-0.1	2
29	NC(=O)COC(=O)CNC(=O)c1sc2ccccc2c1Cl	2	0.8%	-1.9	11	0.3	-12
30	COc1cccc(C(=O)n2nc(-c3ccco3)nc2NCc2cccs2)c1	.	0.7%	.	.	-0.7	-30
31	Cc1cccc(-n2ncc(C(=O)N3CCN(Cc4ccccc4)CC3)c2C2CCN(C(=O)OC(C)(C)C)CC2)c1	.	0.4%	.	.	51*	-15
32	Cc1[nH]c2ccccc2c1C1(O)C(=O)N(Cc2ccccc2)c2ccc(Cl)cc21 (configuration not stated)	.	4.0%	.	.	-1.2	-9
33	C=C(C)CN=c1scc(C)n1/N=C/c1ccco1	-16	-0.6%	-0.1	-21	0.7	-11
34	O=C(c1ccco1)N1CCn2c1nc1ccccc12	8	1.6%	-4.1	8	0.5	-13
35	O=C(Nc1cccc(Br)c1)c1cc(-c2ccc3c(c2)OCCO3)on1	.	6.0%	.	.	0.2	-7
36	COc1ccc2oc(C(=O)Nc3ccc(N4CCOCC4)cc3)c(C)c2c1	-23	0.4%	4.0	-3	-0.3	1
37	C=CCN=c1scc(C)n1/N=C/c1ccc(O)c(O)c1	-22	-0.4%	5.4	.	2.3	13
38	CCn1nccc1C(=O)Nc1ccc(Cl)c(Cl)c1	25	4.9%	-3.8	25	0.1	-1
39	COC(CN1CCc2c(C)nc3c(C#N)cnn3c21)OC	-5	7.8%	-6.8	-6	0.5	-4
40	Cc1ccc(S(=O)(=O)CC(=O)Nc2nc3c(C)cc(C)cc3s2)cc1	.	0.0%	.	.	0.3	-14
41	CC(C)C[C@H](NC(=O)C1CCN(C(=O)[C@H](Cc2ccccc2)NC(=O)OC(C)(C)C)CC1)C(=O)O	7	-0.1%	-1.1	0	0.4	-13
42	O=C(O)/C=C/C(=O)Nc1ccccc1C(=O)OCC(=O)c1ccc2c(c1)OCCO2	1	0.0%	2.5	0	0.7	-18
43	Cc1cc(O)c(CN(C)C)c2c1C(=O)/C(=C/c1ccco1)O2	-11	-3.4%	-2.4	9	1.3	?
44	O=C(COc1coc(CN2CCc3ccccc32)cc1=O)Nc1ccc([N+](=O)[O-])cc1	-1	3.3%	0.4	3	0.1	6
45	O=C(Cc1csc(-c2ccccc2)n1)Nc1ccc(C(F)(F)F)cc1	12	19%	0.2	-12	4.7	-16
46	COc1cc(NC(=O)COC(=O)CSc2ccc3ccccc3c2)c(C)cc1[N+](=O)[O-]	-19	0.0%	-2.5	-4	0.2	-7
47	CCc1nc(CNC(=O)C2CCC(=O)N(Cc3ccccc3F)C2)no1 (configuration not stated)	5	-1.7%	1.6	1	-0.8	15
48	Cc1cc(-c2ccc(C)c(S(=O)(=O)NCC3CCN(Cc4ccc(F)cc4)CC3)c2)on1	-1	2.0%&3.0%	5.6	-26	0.4&-0.1	-11&17
49	COCc1ccc(C(=O)NC2CC(C)(C)Cc3c2cnn3-c2ccc(C)cc2)o1 (configuration not stated)	10	5.1%	-7.6	-9	1.2	5
50	O=C(CCN1C(=O)/C(=C/c2ccc(Cl)cc2)SC1=S)NC1C=CS(=O)(=O)C1 (configuration not stated)	3	1.3%	-5.4	.	0.0	12
51	COc1ccccc1Nc1nnc(SC(C)C(=O)NC2CC2)s1 (configuration not stated)	-4	-0.8%	-4.0	2	-0.5	24
52	CCCCCCc1nnc(NC(=O)c2ccco2)s1	0	-0.3%	-4.1	.	-0.8	-10
53	COc1cccc(CNC(=O)c2c3c(nc4ccccc24)C(=O)N(C2CCCCC2)C3)c1	.	1.2%	.	.	1.9	19
54	CCOc1cccc(OCCOCCN(C)C)c1	10	4.5%	1.6	-5	0.5	-7
55	O=C(O)[C@H]1CCCN1S(=O)(=O)c1cccc2cccnc12	0	-0.1%	0.2	4	-0.2	9
56	CC(=O)Nc1ccc(C2(c3ccc(NC(C)=O)cc3)NC(=O)c3ccccc32)cc1	-4	-0.3%	-1.1	2	0.8	15
57	CC(C)(C)c1ccc(Oc2ccc(NC(=O)c3cccs3)cn2)cc1	4	?	2.1	7	1.1	-24
58	CC(C)OC(=O)/C(=C/c1ccc2c(c1)c1ccccc1n2C)NC(=O)c1ccccc1	0	3.7%	-1.4	-1	-0.4	48
59	Cc1cnn(C(=S)NCc2ccc(Cl)cc2)c1	2	-5.1%[38.3 µM]	-2.2	16	0.1	-5
60	CC(Sc1nnc2ccccn12)C(=O)Nc1ccc2c(c1)OCO2 (configuration not stated)	-7	-0.8%	-2.6	0	0.7	2
61	CCS(=O)(=O)N1CCC(C(=O)Oc2ccccc2)CC1	5	-0.2%	0.5	3	-0.1	-4
62	CC(C)(C)NC(=O)C(c1cccnc1)N(C(=O)c1csnn1)c1ccccc1 (configuration not stated)	3	0.2%	0.7	6	0.5	13
63	CCOC(=O)c1sc(NC(=O)Nc2ccccc2Cl)cc1C	-12	?	0.6	-6	-0.1	2
64	CCOC(=O)Cn1cnc2c(C#N)c3n(c2c1=O)CCCCC3	8	-0.2%	-2.1	0	0.8	16
65	CC(C)Cc1ccc(S(=O)(=O)Nc2ccc3[nH]c(=O)[nH]c3c2)cc1	-8	5.2%&1.2%	-2.2	0	0.0	0
66	CCOC(=O)N1CCN(c2c(NCC3CCN(Cc4cccc(C)c4)CC3)c(=O)c2=O)CC1	-1	-0.4%	-2.7	4	-0.6	7
67	O=C1NC2(C=Cc3c(ccc4ccccc34)O2)Oc2ccccc21 (configuration not stated)	0	-2.5%	-3.8	-1	0.7	1
68	O=C(Oc1cccc2ccccc12)c1ccncc1	1	0.4%	-1.0	-9	0.2	-4
69	COC(=O)c1ccc(CNC(=O)Cn2nnnc2CN(C)C(C)C)cc1	10	0.6%	0.1	-3	0.3	-19
70	CNC(=O)c1cc2cc(OC)ccc2oc1=O	2	-4.3%[38.3 µM]	2.6	4	0.4	-8
71	O=C(NCc1cccs1)C1CCN(C(=O)NCc2ccccc2)CC1	3	0.1%	-0.4	5	-0.2	7
72	Cc1ccnc(-n2c(C)cc(C=O)c2C)c1	16	-0.2%	-1.5	23	1.7	-28
73	CC(C)(C)c1ccc(C(=O)NC(=O)COC(=O)c2ccc(Br)o2)cc1	2	9.5%	5.4	4	1.5	13
